YopH inh = YopH tyrosine phosphatase inhibitors, primary screen, biochemical, fluorescence Ex485/Em525; AID 898, 2007; YopH tyrosine phosphatase [Yersinia enterocolitica]; 0.16% of 140,000 active; inhibition, %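 (about 10 µM by stock and volumes)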;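 active means inhibition of 50% or more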;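 further: controls were vehicle for no effect and minimum signal wells for full effect; inactives centre near -20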
Mtb betalactam = beta-lactam sensitization of Mtb H37Rv, H37Rv; M. tuberculosis H37Rv growth with meropenem, percent inhibition; hits of this screen are not shown here; inhibition, % at 25 µM; 0.27% of 330,000 active; AID 434955, 2010;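 active means about 74% or more and at least 40 points above the plate without the antibiotic, then above 30% in a dose series; inconclusive means first-round hits that could not be retested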;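 further: growth measured after seven days incubation then overnight dye step; 0% = bacteria only wells and 100% = bacteria with antibiotic; twin plates without the antibiotic show which effects depend on it; some results filed as inactive read as strong as hits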
RecA intein inh = Mtb RecA intein splicing inhibitors, primary screen, biochemical, fluorescence, HTS; Protein RecA (Mycobacterium tuberculosis (strain ATCC 25618 / H37Rv)), P9WHJ3; inhibition, %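 (about 9 µM by stock and volumes)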; 0.75% of 290,000 active; AID 2221, 2009; cell-free RecA intein splicing; in the data active means inhibition above about 30%; inconclusive means no clear call, values can overlap the other calls;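 further: 0% = vehicle wells and 100% = reference inhibitor control wells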
Target sequence (P9WHJ3 whole entry, looked up): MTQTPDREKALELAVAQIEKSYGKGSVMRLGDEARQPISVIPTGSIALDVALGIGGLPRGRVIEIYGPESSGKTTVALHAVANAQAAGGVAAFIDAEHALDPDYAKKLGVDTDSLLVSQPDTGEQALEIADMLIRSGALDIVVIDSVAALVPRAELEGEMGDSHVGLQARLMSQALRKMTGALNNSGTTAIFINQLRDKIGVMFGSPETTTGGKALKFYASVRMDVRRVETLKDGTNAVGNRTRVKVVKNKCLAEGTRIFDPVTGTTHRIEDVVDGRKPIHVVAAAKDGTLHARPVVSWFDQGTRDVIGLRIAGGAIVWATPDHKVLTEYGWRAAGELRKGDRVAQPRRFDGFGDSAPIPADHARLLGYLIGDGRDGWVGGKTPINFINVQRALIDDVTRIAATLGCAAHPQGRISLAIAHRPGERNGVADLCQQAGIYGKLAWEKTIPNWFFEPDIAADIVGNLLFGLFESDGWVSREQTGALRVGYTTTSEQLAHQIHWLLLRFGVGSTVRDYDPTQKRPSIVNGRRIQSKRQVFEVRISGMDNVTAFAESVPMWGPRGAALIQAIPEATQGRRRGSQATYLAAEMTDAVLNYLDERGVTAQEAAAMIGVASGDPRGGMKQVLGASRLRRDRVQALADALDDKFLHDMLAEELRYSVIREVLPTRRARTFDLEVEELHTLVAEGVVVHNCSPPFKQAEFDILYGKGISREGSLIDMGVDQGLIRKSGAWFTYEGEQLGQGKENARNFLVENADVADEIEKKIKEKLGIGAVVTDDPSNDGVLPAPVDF
Arbovirus inh = antivirals against arbovirus infection, primary screen, cell-based, full library, 10K replicate subset; arbovirus infection cell-based antiviral screen; inhibition, % at 10 µM; 0.37% of 200,000 active;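 active means inhibition from about 30%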;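 further: bluetongue infection of BSR cells; cell survival read as ATP light after 72 h; 0% = infected wells without compound and 100% = uninfected wells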
Mtb growth = M. tuberculosis H37Rv growth inhibitors, H37Rv strain (AID 1626) | inhibition, % at 10 µM, or IC50 in µM where a hit was titrated | M. tuberculosis H37Rv growth inhibition; higher % means a stronger effect | 0.95% of 220,000 active;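 active means confirmed in a dose series; inconclusive means inhibition above 80% but not taken into the dose series; inactive means below 80% or under 30% at every dose of the series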;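 further: bacteria incubated seven days before Alamar blue readout; 0% = bacteria only wells and 100% = bacteria with antibiotic wells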
Arbovirus inh repeat = further read-out of Arbovirus inh, marked with its call; inhibition, %; measured here: 10K subset replicate screen; many hits read low in the repeat;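 first of two repeat runs on a subset; 0% = infected and 100% = uninfected wells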
Active calls of the source: *; ? = inconclusive; nt = no result given; & = joins results of further samples. A portion of the library. The share of hits here may be higher or lower than overall.

SMILES | YopH inh | Mtb betalactam | RecA intein inh | Arbovirus inh | Mtb growth | others
COc1ccc(NC(=O)c2cc3c(COC(C)=O)cnc(C)c3oc2=Nc2cccc(C(=O)O)c2)c(OC)c1 | nt | 6 | -0.3 | nt | nt
CCCCOP(=O)(OCCCC)C(O)c1ccc(F)cc1 (stereo not given) | nt | 5 | -0.4 | nt | -4%
Cc1noc(NC(=O)c2ccccc2C(F)(F)F)c1C#N | nt | -2 | -0.9 | -1 | -5%
Cc1ccc(NC(/C=C/N(C)C)=C/C(=O)C(F)(F)F)c(C)c1 | nt | 0 | 1.1 | -7 | -3%
COc1ccc(C(CNC(=O)c2oc3cc(C)c(Cl)cc3c2C)N2CCCCC2)cc1 (stereo not given) | nt | 3 | -7.5 | nt | nt
Cc1cc(C)c2nc(-c3ccco3)cc(C(=O)O)c2c1 | nt | nt | -0.7 | 22 | -2%
COCC1CCN(C(=O)C2CCC(=O)N(C3CCCC3)C2)CC1 (stereo not given) | nt | 3 | 1.6 | nt | nt
CC1CCN(C(=O)CSc2nnc3c(n2)[nH]c2ccccc23)CC1 | nt | -5 | -0.7 | nt | nt
O=C1N=C(N2CCOCC2)S/C1=C/c1ccc(-c2ccc(F)cc2)o1 | nt | 92 | -8.7 | -4 | >100µM*
CCOc1ccc(C(c2c(C)[nH][nH]c2=O)c2c(C)[nH][nH]c2=O)cc1OCC | -1 | 1 | 98* | -8 | 5%
Cc1cccc(NC(=O)c2ccc(N3CCOCC3)c([N+](=O)[O-])c2)n1 | nt | -8 | -1.0 | -2 | -1%
COc1ccc(CCN2C(=O)CC(N3CCN(S(=O)(=O)c4ccccc4)CC3)C2=O)cc1 (stereo not given) | 8 | 5 | 0.0 | 8 | -8%
CCOC(=O)C1=C(C)N=C2SC(C(=O)OC)=CC(=O)N2C1c1cc(OC)c(OC)c(OC)c1 (stereo not given) | -24 | -8 | 18 | 7 | 5%
Cc1cc(/C=N/n2cnnc2)c(C)n1-c1ccc2c(c1)OCO2 | -9 | -1 | -2.9 | -13 | 2%
COc1ccccc1CNC(=O)C1CC2Cn3c(nc4cc5ccccc5cc43)C2N1C (stereo not given) | nt | -1 | 0.5 | nt | nt
Cc1ccc(-c2cc(C(F)F)n3ncc(C(=O)NCc4ccco4)c3n2)cc1 | -47 | -1 | nt | -1 | -2%
O=C(c1n[nH]c(=O)c2ccccc12)N1CCC2(CC1)OCCO2 | nt | 2 | -5.3 | 3 | 1%
Nc1ccc(Sc2ccccc2Cl)nc1 | nt | 69 | 4.3 | nt | nt
CC(C)CNC(=O)C1CC(=O)OC12CCCCC2 (stereo not given) | 12 | -8 | -0.9 | 2 | -12%
CSc1nnc(-c2cccn(Cc3cccc(Cl)c3)c2=O)o1 | nt | -4 | 0.2 | -11 | 3%
C=CCOc1ccc(/C=N/Nc2ccccn2)cc1OC | nt | -2 | 0.5 | -5 | -8%
Cc1ccccc1CC(=O)c1ccc(O)c(C)c1O | nt | 1 | nt | -6 | 6%
CCn1c(CC(=O)Nc2cccc(Cl)c2Cl)nnc1SCCOc1ccc(OC)cc1 | -5 | -10 | 0.1 | 6 | 1%
CC(C)n1c(NCc2ccc(N(C)C)cc2)nc2ccccc21 | -18 | -5 | -2.5 | 8 | 2%
O=C(NCCCn1ccnc1)/C(=C\c1cccnc1)NC(=O)c1ccccc1F | nt | -3 | -0.7 | 1 | 6%
COc1ccc(CC(=O)N/N=C(\C)c2cccnc2)cc1 | nt | 9 | 0.7 | nt | nt
COC(=O)c1cc(NS(=O)(=O)c2ccc(OC)c(OC)c2)ccc1Cl | 5 | 0 | 1.2 | 1 | -11%
Cc1nc(SC(C(=O)c2ccccc2)c2ccccc2)nc2ccccc12 (stereo not given) | -11 | 0 | -7.8 | -18 | -1%
Cn1nc(-c2ccc(OCC(=O)N3CCN(Cc4ccccc4)CC3)cc2)c2ccccc2c1=O | 0&-47 | -3&12 | 1.2&1.2 | -6&-18 | 18%
CCOP(=O)(Cc1cc(C(C)=O)c(C)o1)OCC | nt | 2 | -2.4 | nt | -18%
CCCN(CCC)C(=O)C1CC(=O)OC12CCCCC2 (stereo not given) | nt | -2 | -0.1 | 6 | 4%
OC(CN1CCCC(C(F)(F)F)C1)c1ccccc1 (stereo not given) | nt | 4 | -0.7 | nt | nt
Cc1onc(-c2ccccc2Cl)c1C(=O)Nc1ccc(-n2nncc2C(C)(C)C)cc1 | -47 | nt | -0.5 | 6 | -1%
CCOC(=O)c1c(NC(=O)COC(=O)/C=C/c2ccco2)sc2c1CC(C)(C)NC2(C)C | nt | 82 | 16 | nt | nt
CCc1cccc(C)c1NC(=S)N(CCCN1CCOCC1)Cc1cccnc1 | nt | -1 | 1.5 | -2 | -5%
S=C(Nc1nc2c(s1)CCCC2)NC1CC1 | nt | 58 | -4.7 | nt | nt
O=C(Nc1ccc(-c2noc(CCc3ccccc3)n2)cc1)c1ccco1 | -20 | 84 | 0.7 | 4 | 14%
CCN(CC)CCNC(=O)c1ccc(NC(=O)COc2ccccc2F)cc1 | nt | 2 | -0.8 | 3 | -2%
COC(=O)c1ccc(Cl)c(NC(=O)NC2CCCCC2)c1 | -52 | 4 | -1.6 | -4 | -14% | Arbovirus inh repeat=1
CC(C)CC(=O)NC(=S)N(Cc1ccccc1)Cc1ccccc1 | -9 | 0 | 8.5 | -16 | 1%
CCOc1cc(Br)c(CN2C(=O)NC3(CCCCCC3)C2=O)cc1OCC | nt | 10 | 2.7 | nt | nt
N#CCSc1ccc2nc(-c3ccccc3)cn2n1 | nt | 2 | -2.1 | nt | nt
c1ccc(Nc2nc3ccccc3n3nnnc23)cc1 | nt | -8 | -3.9 | 1 | 4%
O=C(CSc1ncn(-c2ccccc2)n1)Nc1nncs1 | nt | -4 | 3.0 | 2 | -5%
Cc1c(C(=O)Nc2ccccc2)sc2nc3n(c(=O)c12)CCCCC3 | nt | 6 | -19 | 8 | 6%
O=C(Oc1ccc(C(=S)N2CCCCC2)cc1)c1ccccc1F | nt | 16 | 8.6 | 1 | 0%
Cn1cccc1Cc1nnc(SCC(=O)N2CCCc3ccccc32)n1-c1ccc(F)cc1 | -15 | 1 | 4.8 | 1 | -4%
CCn1cc(C(=O)NCCc2ccc(C)cc2)c(=O)c2cc(S(=O)(=O)N(C)C)ccc21 | nt | -1 | 0.2 | nt | nt
Cc1cc(C)c2oc(C(=O)NC3CCS(=O)(=O)C3)cc(=O)c2c1 (stereo not given) | nt | 2 | -2.4 | nt | nt
CCCCOc1ccc(N=Nc2ccc(N)nc2N)cn1 | nt | 8 | 6.1 | nt | 12%
Cn1c(SCC(=O)c2ccccc2)nnc1-c1cccs1 | nt | 3 | 0.4 | nt | -4%
O=C(OCCOc1cccc(Cl)c1)c1ccc2ncsc2c1 | nt | 90 | 2.3 | nt | nt
CCc1ccc(S(=O)(=O)N2CCN(C(=O)C3CCN(C(C)=O)CC3)CC2)cc1 | nt | -10 | 1.8 | nt | nt
O=C(NCCCNC(=O)c1ccco1)c1ccc(F)cc1 | nt | -4 | 0.4 | nt | nt
COc1cc(C(c2c(C)[nH][nH]c2=O)c2c(C)[nH][nH]c2=O)ccc1OC(=O)c1cccc([N+](=O)[O-])c1 | -11 | 3 | nt | -3 | -3%
COC(=O)c1c(C)cc(O)c(C)c1O | nt | -4 | -2.8 | nt | -4%
COC(=O)CCC(=O)NC(=S)Nc1cc(Cl)ccc1Cl | -43 | 10 | nt | 0 | -6%
CC(NC(=O)Cn1cccc1C(=O)c1ccccc1)c1ccc2c(c1)OCCO2 (stereo not given) | nt | 10 | -2.7 | -7 | 5%
CC(C)CN(CC(C)C)S(=O)(=O)N1CCC(C(=O)NCc2cccs2)CC1 | -57 | 1 | nt | 8 | -7%
O=C(Cc1ccccc1)Nc1ccc(NC(=O)c2cccs2)cc1 | nt | 0 | -1.6 | 13 | 0%

Next section
SMILES | YopH inh | Mtb betalactam | RecA intein inh | Arbovirus inh | Mtb growth | others
Cc1ccc2c(Cn3ccnc3)cc(=O)oc2c1C | nt | -3 | 0.2 | nt | nt
Cc1nnsc1-c1onc(C)c1C(=O)O/N=C/c1ccc(Cl)cc1 | nt | 85 | -1.7 | nt | 60%
O=C(Nc1ncc2c(n1)CC(c1ccc(Cl)cc1)CC2=O)c1ccco1 (stereo not given) | nt | 7 | 1.1 | nt | nt
Cc1onc(-c2ccccc2)c1C(=O)Nc1nc(-c2cc(F)ccc2F)cs1 | -17 | -4 | -2.4 | -3 | -3%
O=C(NC1CCCCC1)[C@H](CSCc1ccccc1)N1Cc2ccccc2C1=O | -5 | 3 | nt | -5 | -11%
CC(C)(C)c1nnc(NC(=O)CS(=O)(=O)Cc2ccccc2)s1 | nt | 2 | -0.7 | 10 | -12%
CC(C)OC(=O)CN1CCN(C2c3ccccc3-c3ccccc32)CC1 | -47 | 27 | 2.4 | -4 | -1%
CC1CCCN(c2nc3ccccc3nc2C(C#N)S(=O)(=O)c2ccccc2)C1 (stereo not given) | -30 | -1 | nt | 3 | nt
O=S(=O)(c1cccc2cccnc12)N1CCN(c2ccccc2)CC1 | 15 | 31 | 0.2 | 4 | -5%
CC(=O)Nc1ccc(S(=O)(=O)NCC(=O)NC(C)c2ccc(S(N)(=O)=O)cc2)cc1 (stereo not given) | nt | -6 | 0.0 | nt | 5%
C/C(=N\NC(=O)c1cccs1)C(C)(C)C | -21 | 12 | -0.3 | -2 | 9%
O=C1C(c2ccc(F)cc2)N(Cc2ccc3c(c2)OCO3)C(=O)CN1C1CCCCCC1 (stereo not given) | -5 | -13 | 2.5 | -2 | -8%
COc1ccc(CCNC(=O)Cc2ccc(C)cc2)cc1OC | nt | -1 | -0.7 | nt | nt
NC(N)=NC(=S)Nc1ccc(Cl)cc1 | nt | 6 | -3.1 | nt | -3%
O=[N+]([O-])c1ccccc1OCCOc1ccccc1[N+](=O)[O-] | nt | -1 | -3.5 | nt | -7%
CCOc1ccccc1C(=O)OCC(=O)NCCNC(=O)COC(=O)c1ccccc1OCC | nt | 6 | -2.6 | nt | nt
O=C(NCC1CCCO1)Nc1ccc2c(c1)OCO2 (stereo not given) | nt | 2 | -0.9 | 2 | 6%
CN(C)/C=N/c1nc2nccc(-c3ccccn3)n2n1 | nt | -10 | -17 | 2 | 2%
O=C(CSc1ncnc2c1oc1ccccc12)Nc1cccc(C(F)(F)F)c1 | -38 | 13 | 0.7 | 7 | 0% | Arbovirus inh repeat=8
Cc1ccc(S(=O)(=O)N/N=C/c2ccccc2O)cc1[N+](=O)[O-] | nt | -11 | -2.7 | -6 | 7%

An excerpt from above in order of molar mass, falling:
SMILES | YopH inh | Mtb betalactam | RecA intein inh | Arbovirus inh | Mtb growth | others
O=C(CSc1ncnc2c1oc1ccccc12)Nc1cccc(C(F)(F)F)c1 | -38 | 13 | 0.7 | 7 | 0% | Arbovirus inh repeat=8
O=C(Nc1ncc2c(n1)CC(c1ccc(Cl)cc1)CC2=O)c1ccco1 (stereo not given) | nt | 7 | 1.1 | nt | nt
Cc1nnsc1-c1onc(C)c1C(=O)O/N=C/c1ccc(Cl)cc1 | nt | 85 | -1.7 | nt | 60%
O=S(=O)(c1cccc2cccnc12)N1CCN(c2ccccc2)CC1 | 15 | 31 | 0.2 | 4 | -5%

(more compounds)
SMILES | YopH inh | Mtb betalactam | RecA intein inh | Arbovirus inh | Mtb growth | others
Cc1ccc(NC(=O)CC2CS(=O)(=O)CC2CC(=O)Nc2ccc(C)c(C)c2)cc1C (stereo not given) | -17 | -3 | 7.3 | 0 | -19%
O=C1S/C(=C\c2ccc(N3CCOCC3)o2)C(=O)N1Cc1c(F)cccc1Cl | -26 | 8 | -2.2 | -7 | 2%
CC(C)c1ccc(/C=N/NC(=O)CN(c2cccc(Cl)c2Cl)S(C)(=O)=O)cc1 | -47 | -10 | -5.4 | -42 | -1%
COc1ccc(CCNC(=O)CN2CCOc3ccccc32)cc1OC | -20 | ? | 7.3 | -6 | 1% | Arbovirus inh repeat=-3
CC1(C)C2C/C(=N\O)C(C)(/[N+]([O-])=C/c3cccc([N+](=O)[O-])c3)CC21 (stereo not given) | nt | -3 | -3.6 | 18 | -1%
CCN(Cc1cnn(C)c1)C(=O)c1cc(COc2ccc(F)cc2F)on1 | nt | -6 | -2.5 | nt | -7%
CN(CC(=O)Nc1ccc(F)c(F)c1F)C1CCCCC1 | -1 | -3 | -0.8 | -1 | 0%
Cn1ccnc1C(=O)c1ccc(N)cc1 | nt | 3 | -3.7 | nt | nt
CNC(=O)/C=C1\NC(C)(C)Cc2c1ccc1ccccc21 | -116 | 46 | -13 | -5 | 8%
Cc1ccn(C(C)CC(=O)N2CCc3ccccc32)n1 (stereo not given) | nt | 2 | 1.3 | nt | nt
Oc1ccc(Cc2ncc(C(F)(F)F)cc2Cl)cc1 | nt | 1 | -0.8 | 3 | -3%
